NPYLR7 agonist = activates Aedes aegypti NPYLR7 receptor; AID 1259423; 0.15% of 270,000 active; HEK293T NPYLR7/Galpha15, GCaMP6s calcium fluorescence; activation, % at 10 µM; in the data active = activation above about 40%;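 also: 0% = vehicle and 100% = reference agonist at the receptor; some compounds past the cut are filed as inactive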
NPYLR7 agonist max-min = further read-out of NPYLR7 agonist, marked with its call; activation, %; measured here: Max-Min RFU normalised activation; some inactives read as strong as hits;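 span of the calcium signal over five minutes; 0% = vehicle and 100% = native peptide agonist; compound fluorescence can raise it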
The depositor's hits bear a star; & = joins results of further samples.

Start of the listing, in advance:
SMILES	NPYLR7 agonist	NPYLR7 agonist max-min
COc1ccc(-n2nc(-c3ccc(C)o3)cc2C(=O)N(CCc2ccccc2)Cc2ccccc2)cc1	16	17
COc1ccc2c(c1)OC[C@@H]1CN(CCO)C(=O)CCN(C(=O)COc3ccccc3)[C@H]21	-5	-4
COc1ccccc1OCC(=O)N1CCc2c(cnc(C)c2CNC(=O)C(OC)c2ccccc2)C1 (centres undefined)	17	7

This part in full, from the first entry:
SMILES	NPYLR7 agonist	NPYLR7 agonist max-min
COc1ccc(-n2nc(-c3ccc(C)o3)cc2C(=O)N(CCc2ccccc2)Cc2ccccc2)cc1	16	17
COc1ccc2c(c1)OC[C@@H]1CN(CCO)C(=O)CCN(C(=O)COc3ccccc3)[C@H]21	-5	-4
COc1ccccc1OCC(=O)N1CCc2c(cnc(C)c2CNC(=O)C(OC)c2ccccc2)C1 (centres undefined)	17	7
O=C(NCc1ccco1)C(c1ccccc1)N1C(=O)CSC1c1ccc(F)cc1 (centres undefined)	27	27
COC(=O)C(C)Sc1nc2c([nH]c3ccccc32)c(=O)n1-c1cccc(OC)c1 (centres undefined)	1	54
O=C(CC(c1ccc(Cl)c(Cl)c1)c1c[nH]c2ccccc12)NC1CCN(Cc2ccccc2)CC1 (centres undefined)	-2	4
Cc1c(Cl)c([N+](=O)[O-])nn1CC(=O)NCc1ccc(Cl)cc1	1	-2
CS(=O)(=O)Cc1ccc(N2C[C@@H]3[C@H](C2)[C@H]2CC[C@@H]3O2)nc1	2	-2
Cc1ccc(N=Nc2cn[nH]c2C)cc1	3	1
CC(=O)c1cccc(NC(=O)N2CCC(Cc3ccc(-n4cccc4)cc3)CC2)c1	3	5
O=S1(=O)C=CC(Sc2nc3ccccc3[nH]2)C1 (centres undefined)	4	3
C=CCc1cc(C(=O)OC)cc(OC)c1OC(=O)c1cc(OC)cc(OC)c1	9	16
CCC(NC(=O)C(NC(=O)OCc1ccccc1)SC(C)C)C12CC3CC(CC(O)(C3)C1)C2 (centres undefined)	-11	-18
COc1ccc(-c2nnc(SCC(=O)c3ccccc3F)n2C)cc1	-5	-6
Cc1nn2cc(CNC(=O)c3ccc(C4CCCO4)s3)nc2s1 (centres undefined)	18	7
COc1ccc(-c2ccc(CN3CCN(C)CC3)cn2)cc1C	1	-1
O=C(NCC1(c2ccccc2)CCOCC1)c1cn(C2CC2)cc(C(=O)NC2CCCCC2)c1=O	21	11
CCOC(=O)C1=C(O)/C(=C\c2ccc3c(c2)OCCO3)SC1=Nc1cccc(F)c1	11	10
Cc1cc(NC(=O)CSc2nc(C)c(C)n2CC(C)C)no1	-2	-2
O=S(=O)(NCC1(c2ccccc2)CC1)c1ccccc1F	5	0
CC(C)(NS(=O)(=O)c1cccs1)c1ccc(Br)cc1	-14	-20
CCc1ccc(CC(=O)N=c2sc3cc4c(cc3n2C)OCCO4)cc1	-9	-12
CC(C)c1ccccc1OCc1nc(CN(C(=O)c2ccccc2F)C2CC2)cs1	0	7
CC(C)C(=O)NCCCn1nc(-c2ccccc2)ccc1=O	3	4
Clc1ccc(-c2nn3c4cc(N5CCNCC5)ccc4nc3c3ccccc23)cc1	10	8
(cont.)
SMILES	NPYLR7 agonist	NPYLR7 agonist max-min
CC1(C)C2(C(=O)NC3CC4CCC(C3)N4Cc3ccoc3)CC[C@@]1(C)C(=O)O2 (some centres undefined)	3	8
CC(C)[N+](C)(CCOC(=O)C1c2ccccc2Oc2ccccc21)C(C)C	-9&-26&0&2	-13&-28&-5&-24
O=C1N(c2ccccc2)CCC12CCN(Cc1cc3n(n1)CCNC3)CC2	8	1
Fc1ccc(Cc2nc(CSc3nc4ccccc4s3)cs2)c(Cl)c1	2	-1
CCCc1nc(SCc2cc(Br)c3c(c2)OCO3)n[nH]1	6	4
CC(OC(=O)c1nc(-c2ccccc2)oc1C1CC1)C1CCOC1 (centres undefined)	-1	-3
CN(CCc1ccccn1)c1nccc(CCC(F)(F)F)n1	9	8
O=C(c1cc2ccccc2o1)N1CCN(c2ncnc3c2nnn3-c2ccc(Cl)cc2)CC1	0	-3
Cc1sc2nc(-c3cccnc3)nc(NC(C)C(C)C)c2c1C (centres undefined)	-3	-3
Cc1nnc(COC(=O)C2CCN(C(=O)c3ccc(Cl)cc3)CC2)n1C	-4	-5
CCCC(O)CN(CCOC)Cc1nc2scc(-c3cccc(OC)c3)c2c(=O)[nH]1 (centres undefined)	-3	0
NS(=O)(=O)CCCC(=O)N1CCOC(C(F)(F)F)C1 (centres undefined)	1	-15
O=C(Nc1cccc(Cl)c1)C(C1CCCC1)N1CCN(C(=O)c2ccc(F)cc2F)CC1 (centres undefined)	-5	-4
CCOc1ccc(-n2ccnc(SCC(=O)NCCc3ccccc3)c2=O)cc1	2	7
COc1ccc(CN(CC(C)C)C(=O)CCC(F)(F)F)cc1	2	-2
CSc1nc(N2CCOCC2)c2cnn(CCNC(=O)Cc3cccc(C)c3)c2n1	4	3
O=C(CCc1nnc(Cc2ccc(-c3ccccc3)cc2)o1)NCCc1ccccn1	1	-2
COc1ccc(-c2nc3ccccn3c2NC(=O)COc2ccc(Cl)cc2)cc1	-3	3
CCOC(=O)CNC(=O)Cn1cc(OC)c(=O)cc1CN1CCCCC1	-3	-5
Cn1nc(C(=O)NCc2ccccc2)c2c1CCN(C(=O)CCC1CCCCC1)C2	18	5
Cc1ccc2c(Nc3ccc4c(c3)OCO4)c(C(=O)N3CCC(C)CC3)cnc2n1	-12	-14
CCN(CC)C1(C(N)=O)CCCCC1	5	1
COc1cccc(CN2CCC(C(=O)NC(c3ccc(Cl)cc3)c3cccnc3)CC2)c1 (centres undefined)	12	2
CC(C)C(C)(C#N)NC(=O)CSc1nnc(C2CC2)n1C (centres undefined)	3	13
Cc1ccn2c(=O)nc(SCC(=O)N3CCCc4ccccc43)nc2c1	4	0
The results go on:
SMILES	NPYLR7 agonist	NPYLR7 agonist max-min
CC(C)CCn1c(SCC(=O)NC(C)(C)C)nc2cc(Cl)ccc2c1=O	-1	-5
O=C(O)C1CC=C(Cl)CC1C(=O)N1CCCCC1 (centres undefined)	7	1
O=C(CN1CCc2ccccc21)NCC(=O)Nc1ccc(F)c(F)c1	7	5
COCc1ccccc1CNC(=O)CN1CCC(C)Sc2ccccc21 (centres undefined)	4	1
CC(C)C(C(=O)N1CCOC(COCc2cccc(C(F)(F)F)c2)C1)c1ccccc1 (centres undefined)	15	5
CCn1c(C)c(C(=O)CN(CCN2CCOCC2)C(=O)c2cccc(C(F)(F)F)c2)c(C)c1C(=O)OC	-13	-12
Oc1cccc2ccc(Nc3ccccn3)nc12	-14	-16
CCN(CC)c1nc(C)nc2c1sc(=S)n2C	-1	-1
CN(C(=O)c1ccccc1F)S(=O)(=O)c1ccc(Cl)s1	0	-1
COc1ncccc1C(=O)N(Cc1cccnc1)CC1CCN(Cc2ccccc2C)CC1	2	2
O[C@@H]1C[C@@H]2C[C@H](c3ccccc3)OC[C@@]2(O)[C@H]1Nc1ccccn1	1	13
Cc1nnc(COc2ccccc2I)o1	1	0
COc1ccc(C(=O)N2CCCCC2c2cn[nH]c2)c(F)c1 (centres undefined)	12	6
Cc1nn(-c2ccc(F)cc2)c(C)c1C(=O)NC1CCN(Cc2ccccc2)C1 (centres undefined)	-2	-2
Cc1ccc(/C=C2N=C(/C=C/c3ccccc3)OC/2=O)o1	4	-1
Cc1cc(NCc2ccc(C(=O)N(C)C)cc2)nc(C)n1	-3	-3
COc1cccc(C(=O)NC(NC(=S)Nn2cnnc2)C(Cl)(Cl)Cl)c1 (centres undefined)	1	-1
CCCn1c(S(=O)(=O)C(C)C(=O)Nc2ccc(OC)c(OC)c2)n[nH]c1=O (centres undefined)	5	13
Cc1ncc([N+](=O)[O-])n1CCN1C(=O)C2C(C1=O)[C@H]1CC[C@@H]2O1 (some centres undefined)	-9	-12
CCOC(=O)Cn1c(=NC(=O)c2ccccc2Br)sc2cccc(F)c21	20	20
CC(C)=CCC/C(C)=C/CNC(=O)c1cncn1-c1cccc(-c2ccccc2C(F)(F)F)c1	-5	0
COc1cccc(N=Nc2c(O)[nH]c(=O)[nH]c2=O)c1	-2	-7
Cc1ccc(NC(=O)CSc2ccc(-c3ccncc3)nn2)cc1	-14	-17
CCOC(=O)C1C(=COCCN)NC(C)=C(C(=O)OC)C1c1ccccc1Cl (centres undefined)	-3&-7	-8&-8
COc1ccccc1C(=O)N1CCc2c(sc3[nH]c(=O)n(C(C)C)c(=O)c23)C1	11	4
(next part)
SMILES	NPYLR7 agonist	NPYLR7 agonist max-min
Cc1nn2c(=O)[nH]c(SCC(=O)Nc3ccc(F)cc3)nc2c1-c1ccccc1	12	3
NC(N)=Nc1nc2cc3c(cc2[nH]1)OCCCO3	0	5
CC(=O)NCCOc1ccc(C(=O)N2C[C@@H]3C4CCC(CC4)[C@@H]3C2)cc1	3	0
NCc1ccc(COC2CCOCC2)cc1	-3	-6
CC(C)N(Cc1nccn1Cc1ccc(Cl)cc1Cl)C(=O)NC(C)(C)C	4	8
Cc1cc(C(=O)COC(=O)C(C#N)=Cc2ccco2)c(C)n1C1CC1	12	9
O=C(CCCc1cccs1)N1CCN(c2ccccc2O)CC1	0	-1
COC(=O)CSc1nc2sc3c(c2c(=O)n1C)CCCC3	2	1
COc1ccccc1-c1cccc(-c2cccc(NC(=O)c3cccc(Cl)c3)c2)n1	-7	-7
CO[C@H]1COC[C@@H]1NC(=O)c1ccc(CSc2ncccn2)o1	0	2
C=CCn1c(=O)c2c(nc3n(-c4cccc(Cl)c4)c(C)cn23)n(C)c1=O	1	-2
COCc1cc(N2CCN(c3cccc(C(F)(F)F)c3)CC2)nc(SCc2ccc(C(=O)NCCc3ccccn3)cc2)n1	-8	-2
Cc1ccc(N2CCC(CNC3CCN(C(=O)c4ccccc4)CC3)C2)cc1 (centres undefined)	8	12
Cc1cc(=O)[nH]c(NN=CC2CC=CCC2)n1 (centres undefined)	-1	-2
CC(=O)Nc1nc(C)c(C(C)=O)s1	-1	-11
Cn1c(C(=O)NC2CCCCCC2)cc2c(=O)n3ccccc3nc21	3&1	-1&1
Cn1cnc2c(Nc3ccc(F)c(Cl)c3)nccc21	-1	-7
CC(C)c1nn(-c2cccc(Cl)c2)c(C(C)C)c1C(=O)NCc1ccccn1	6	15
Cc1nc(N2CCCC2C(=O)NC2CCc3ccccc32)nc2cc(S(C)(=O)=O)ccc12 (centres undefined)	2	-3
CC1=NC2=C(C(=O)CCC2)C(c2coc3ccccc3c2=O)C1C(=O)OCCc1ccccc1 (centres undefined)	-9	-14
COc1ccccc1-n1cc(CN2CC(=O)N(Cc3cccnc3)CC(OC)C2)cn1 (centres undefined)	21	7
O=C(CCC1CCCN(Cc2ccc(Cl)s2)C1)NC1CC1 (centres undefined)	8	3
CCOC(=O)c1cc(C(=O)OCC)c(N=Nc2c(O)[nH]c(=S)[nH]c2=O)s1	-4	-3
CCc1nc2ccc(C(=O)N3CCN(c4ccccc4)CC3)cn2c1N(C)CCCc1ccccc1	12	4
COc1ccc2nc(C(=O)NC(C)C)ccc2c1	4	4
Going on with the list.
SMILES	NPYLR7 agonist	NPYLR7 agonist max-min
Cc1cc(N2CCCN(Cc3nc(C)n4ccccc34)CC2)ccn1	1	1
N#CC1(N2CCNCC2)CCCCC1	-1	5
COCC(C)NC(=O)c1cc(-c2ccc3c(c2)OCO3)nc2ccccc12 (centres undefined)	-7	-11
CC(C)c1nnc(NC(=O)NCCN2CC=CC2)s1	6	4
COc1ccc(OC)c(N2CCN(C(=O)c3cccc(Br)c3)C(C)C2=O)c1 (centres undefined)	-3	0
CC(c1ccc(O)c(F)c1)n1ccnc1-c1ccc2c(c1)OCO2 (centres undefined)	17	12
O=C(Cn1cc([N+](=O)[O-])ccc1=O)NCCN1C(=O)CSC1=O	3	5
CC(c1cccnc1)N(C)Cc1ccncc1 (centres undefined)	3	-2
Cc1cc(C=C(C#N)c2ncc3n2CCCCC3)c(C)n1C1CCCC1	7	5
CCCN1CC(NCC(=O)Nc2ccc(C)c(F)c2)CC1=O (centres undefined)	5	3
O=C(C1CCCC1)N(Cc1ccc(F)cc1F)CC1CC(c2cccc(F)c2)=NO1 (centres undefined)	20	13
CC1CCN(CC(=O)N2CCC(c3nc4ccccc4o3)CC2)C1=O (centres undefined)	17	7

Single records, as listed above. Screens in order: NPYLR7 agonist	NPYLR7 agonist max-min
N#CC1(N2CCNCC2)CCCCC1 is listed as -1	5
Cc1cc(C=C(C#N)c2ncc3n2CCCCC3)c(C)n1C1CCCC1 is listed as 7	5
CC(c1cccnc1)N(C)Cc1ccncc1 (centres undefined) is listed as 3	-2
CCCN1CC(NCC(=O)Nc2ccc(C)c(F)c2)CC1=O (centres undefined) is listed as 5	3

5 structures out of the list, arranged by formula weight, highest first.
SMILES	NPYLR7 agonist	NPYLR7 agonist max-min
COc1ccc(-n2nc(-c3ccc(C)o3)cc2C(=O)N(CCc2ccccc2)Cc2ccccc2)cc1	16	17
COc1ccc(-c2nc3ccccn3c2NC(=O)COc2ccc(Cl)cc2)cc1	-3	3
C=CCc1cc(C(=O)OC)cc(OC)c1OC(=O)c1cc(OC)cc(OC)c1	9	16
CC(OC(=O)c1nc(-c2ccccc2)oc1C1CC1)C1CCOC1 (centres undefined)	-1	-3
COc1ccc(-c2ccc(CN3CCN(C)CC3)cn2)cc1C	1	-1

A second format for 2 compounds above:
CCOc1ccc(-n2ccnc(SCC(=O)NCCc3ccccc3)c2=O)cc1
  NPYLR7 agonist: 2	NPYLR7 agonist max-min: 7
COc1ccc(CN(CC(C)C)C(=O)CCC(F)(F)F)cc1
  NPYLR7 agonist: 2	NPYLR7 agonist max-min: -2

Compound activity as filed in PubChem.

An excerpt, so the mix of outcomes need not match the whole.
